From PubChem BioAssay
AF4-AF9 inh – inhibitors of human MLL-AF4/AF9 interaction. P42568. AlphaScreen, biotin-AF4 peptide binding to FLAG-AF9. inhibition, % at 10 µM. 350,000 tested, 0.47% active;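 active = every replicate reaching a set inhibition limit, whatever the replicate mean, cut at about 25% in these data; inconclusive = mean inhibition reaches that limit but some replicates miss it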;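 also: 0% = plate neutral control median and 100% = total signal loss; the record names both 10 and 1 µM as test concentration; the first replicate is given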
Target sequence (P42568 whole entry, looked up): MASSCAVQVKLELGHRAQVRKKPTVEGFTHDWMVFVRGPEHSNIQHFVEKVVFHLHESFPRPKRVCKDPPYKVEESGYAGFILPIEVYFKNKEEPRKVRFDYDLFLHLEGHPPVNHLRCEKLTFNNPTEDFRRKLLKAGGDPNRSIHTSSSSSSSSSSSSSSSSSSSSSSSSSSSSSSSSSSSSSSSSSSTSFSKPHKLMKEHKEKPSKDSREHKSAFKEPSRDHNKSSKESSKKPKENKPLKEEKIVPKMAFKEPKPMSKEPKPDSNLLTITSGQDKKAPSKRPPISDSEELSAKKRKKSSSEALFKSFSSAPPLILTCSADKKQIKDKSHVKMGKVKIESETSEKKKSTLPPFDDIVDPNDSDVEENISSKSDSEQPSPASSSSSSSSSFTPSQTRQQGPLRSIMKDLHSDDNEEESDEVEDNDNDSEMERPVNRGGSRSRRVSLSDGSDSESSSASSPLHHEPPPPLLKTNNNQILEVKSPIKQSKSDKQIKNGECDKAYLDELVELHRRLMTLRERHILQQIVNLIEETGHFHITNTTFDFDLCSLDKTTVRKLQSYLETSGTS
RanGTP-Impb inh – disruptors of Ran-importin-beta complex formation – biochemical, FRET, CFP-Ran, YFP-importin-beta, homogeneous, primary screen. cell-free CFP-Ran/YFP-importin-beta FRET ratio. inhibition, % (concentration not given with the values). AID 2216. 300,000 tested, 1.1% active;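 active = most replicates above 15%; inconclusive = exactly half above 15%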;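 also: 0% = DMSO wells and 100% = Ran loaded with GDP instead of GTP; wells of about 40 µL received 100 nL stock; the first replicate is given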
Beta apoptosis – beta cell apoptosis inhibition; INS-1E cytokine-induced death, ATP luminescence, 48 h; percent of positive-control rescue, neutral wells zero; AID 435005; protection from apoptosis, % (no concentration beside the values); 300,000 tested, 0.8% active;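 active = all replicates at 75% or more, or half of them and the mean; inconclusive = half reach 75% but not the mean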;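 also: 0% = cytokine-treated negative control wells and 100% = positive control rescue; higher means more ATP so stronger rescue from cytokine killing; wells of about 40 µL received 100 nL stock; the first replicate is given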
Ecoli rRNA inh – selective bacterial rRNA inhibition in E. coli; E. coli WT GFP vs humanized-ribosome RFP mutants, fluorescence, 24 h; stronger effect = lower value; DMSO median 0, no signal -100; GFP signal change (wild-type ribosome), % (no concentration beside the values); AID 720706; 350,000 tested, 1.6% active;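 active = significant combined selectivity score with lowered wild-type GFP, culture density cut under 30%, mutant RFP and density less affected; inactive = any of these conditions unmet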; also: one replicate is shown; some compounds called inactive have numbers as strong as hits
FGF22 binding – FGF22 (human) thermal shift binding; Q9HCT0; calls only at 9.99 µM; recombinant FGF22 thermal shift, SYPRO orange fluorescence; percent of sucrose octasulfate shift, DMSO zero; AID 651658; 340,000 tested, 1.5% active;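 active = melting point raised past a set limit in the mean and every replicate; inconclusive = no clear call; three in four hits are not shown here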
Target sequence (Q9HCT0 whole entry, looked up): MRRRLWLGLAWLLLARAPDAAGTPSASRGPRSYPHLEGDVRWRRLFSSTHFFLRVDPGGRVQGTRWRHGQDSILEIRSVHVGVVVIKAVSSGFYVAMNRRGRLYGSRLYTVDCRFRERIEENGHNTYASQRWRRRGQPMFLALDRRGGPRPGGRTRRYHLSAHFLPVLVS
Calb FLC – C. albicans growth modulation with fluconazole; C. albicans CaCi-2 (fluconazole-resistant clinical isolate) + fluconazole, Alamar Blue growth, 48 h; growth inhibition, % (no concentration beside the values); 300,000 tested, 0.57% active; AID 1979;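 active = most replicates above 75%; inconclusive = exactly half above 75%; inactive = most below 75%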;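 also: all wells also contain fluconazole at 8 µg/ml as a sub-toxic cotreatment; 0% = median of DMSO wells and 100% = median of geldanamycin control wells; wells of about 8 µL received 7.5 nL stock; the first replicate is given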
T cruzi inh – T. cruzi replication inhibition; T. cruzi beta-gal in NIH3T3, luminescence, 90 h; inhibition, % (concentration not given with the values); 300,000 tested, 1.4% active;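 active = mean inhibition across valid replicates above about 55%, limit read from the data; inconclusive = mean below that limit but half or more replicates reach it; inactive = mean below it, under half of replicates reach it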;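 also: signal also drops with host cell toxicity which is not excluded here; 0% = plate median of DMSO wells and 100% = zero luminescence signal; higher percent means less beta-gal luminescence so fewer parasites; stock transfer was 50 nL into about 50 µL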
ALR inh – inhibitors of human sulfhydryl oxidase ALR; purified ALR, DTT oxidation, H2O2 HRP-luminol luminescence; 290,000 tested, 3.8% active; inhibition, % (test concentration not listed); P55789;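 active = mean and each replicate at 75% or more; inconclusive = only one of the two met; inactive = neither met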;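 also: stock transfer was 7.5 nL into about 7.5 µL; 0% = neutral wells and 100% = wells with inactivated enzyme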
Target sequence (P55789 whole entry, looked up): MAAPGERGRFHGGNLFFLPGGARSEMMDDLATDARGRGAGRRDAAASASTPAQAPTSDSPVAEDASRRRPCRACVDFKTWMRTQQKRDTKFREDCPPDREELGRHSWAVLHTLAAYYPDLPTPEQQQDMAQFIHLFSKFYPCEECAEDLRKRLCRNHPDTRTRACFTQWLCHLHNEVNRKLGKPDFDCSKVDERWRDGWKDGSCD
Ecoli rRNA inh OD600 – recorded beside Ecoli rRNA inh, whose call it bears; OD600 change, %; measured here: OD600 growth;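 optical density of the mix in the first replicate; 0 = DMSO median and -100 = no signal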
Ecoli rRNA inh RFP – also measured in Ecoli rRNA inh; calls as there; RFP signal change, %; measured here: RFP humanized mutant strains;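 first replicate; 0 = DMSO median and -100 = no signal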
* marks the source's active call; other numbers are inactive results; i = inactive; u = inconclusive; x = not tested or not shown. Some of the compounds tested, so the mix of outcomes need not match the whole.

SMILES	AF4-AF9 inh	RanGTP-Impb inh	Beta apoptosis	Ecoli rRNA inh	Ecoli rRNA inh OD600	Ecoli rRNA inh RFP	FGF22 binding	Calb FLC	T cruzi inh	ALR inh
COc1ccccc1S(=O)(=O)c1ccccc1[N+](=O)[O-]	0.0	-1.5	4	11	-9	2.7	i	0	-9	-14
O=C(NC1CCCCC1)C12CC3CC(C1)CC(n1cncn1)(C3)C2	x	2.6	-6	x	x	x	x	-11	4	-24
CCCCN1C2=NC(c3ccccc3)CN2c2ccccc21 (stereo not drawn)	0.2	-0.2	9	3	0	-2.6	i	4	-8	93*
COC(=O)c1ccc(Cn2cnc3ccccc3c2=O)cc1	x	-0.9	-2	x	x	x	x	-10	1	-22
CC1CCN(C(=O)CN2C(=O)COc3ccc(Cl)cc32)CC1	-5.6	2.1	0	5	4	-0.4	i	2	9	3
Cc1cccc(NC(=O)/C=C/c2cccs2)n1	x	-2.4	0	x	x	x	x	-6	13	1
CC(C)c1ccc(CNC(=O)C(=O)NCCCn2ccnc2)cc1	0.7	3.7	-4	5	9	0.5	i	-12	-3	1
O=c1[nH]cnc2scc(-c3ccc(Br)cc3)c12	-0.3	-1.2	2	12	7	0.0	i	-21	-13	x
Cc1ccc(C)c(NC(=S)/C(=C(\[O-])c2ccc(Cl)s2)[n+]2ccccc2)c1	10	-5.9	-7	-9	-1	-0.4	i	-29	-21	-14
CCc1ccc(CNC(=O)C(=O)NCCc2ccc(OC)c(OC)c2)cc1	x	0.0	-8	x	x	x	x	-1	11	0
CCOc1ccc(S(=O)(=O)Oc2ccc3ccccc3c2)cc1	x	2.3	-9	x	x	x	x	-2	-7	-4
COc1cc(/C=N/N=C(N)N)ccc1OCc1ccccc1Cl	17	3.2	20	-11	-23	16	i	21	55*	15
Cc1ccc(/C=N/N2C(=S)SC(C)(C)C2N(O)C(=O)Nc2ccc([N+](=O)[O-])cc2)cc1 (stereo not drawn)	x	-2.1	11	x	x	x	x	-1	25	-34
CNCCCCOc1ccccc1-c1ccccc1	-2.8	2.4	1	-9	-18	-2.4	i	-1	13	-24
CC(C)Cn1c(-c2ccncc2)n[nH]c1=S	-7.3	0.7	1	9	8	-0.3	i	27	-1	87*
CCOC(=O)C1=C(COC(=O)CSc2ccc(Br)cc2)NC(=O)NC1C (stereo not drawn)	-10	0.0	x	6	15	1.0	i	-4	-8	x
COc1cccc(-c2cc(C(=O)Nc3ccccc3SC)no2)c1	x	2.5	1	x	x	x	x	3	6	-9
CCOc1ccc(NC(=O)CN(C)CC(=O)Nc2ccccc2C#N)cc1OCC	x	-0.1	0	x	x	x	x	-1	4	-4
Cc1sc2ncn(CC(=O)NCC3COc4ccccc4O3)c(=O)c2c1S(=O)(=O)N1CCCCC1 (stereo not drawn)	-0.3	-2.4	1	17	14	0.7	i	0	26	-3
Cc1nc(-n2cc(F)c(=O)[nH]c2=O)c2nc(C)oc2n1	x	2.3	-8	x	x	x	x	11	-6	3
O=[n+]1c2c(n([O-])c3cc(F)c(F)cc31)CCCC2	x	0.4	-10	x	x	x	x	1	-2	-41
COc1cc2ncnc(NCc3ccccc3F)c2cc1OC	-0.9	1.9	6	0	13	-2.0	i	-32	15	0
COc1ccc(CCNC(=O)C2CCN(S(=O)(=O)N3CC(C)CC(C)C3)CC2)cc1OC (stereo not drawn)	x	0.9	-2	x	x	x	x	0	2	-5
CCN(CC)c1nc2c(s1)C(=O)NCCC2	x	2.8	2	x	x	x	x	u	-17	-6
COC(=O)c1ccc(NC(=O)COc2ccc(C3C(C#N)=C(N)Oc4c3ccc3ccccc43)cc2OC)cc1 (stereo not drawn)	x	0.0	8	x	x	x	x	18	14	-6
Cc1ccnc(NC(=O)c2ccc(S(=O)(=O)c3ccccc3)cc2)c1	2.2	-1.5	2	-13	-10	-2.6	i	-10	-3	-3
O=c1cc(-c2c(O)c3ccccc3n(Cc3ccccc3)c2=O)[nH][nH]1	-1.1	-5.5	-10	-9	-28	-15	i	-1	4	67
CC1(C)CC(=O)C(C=NC2CCCCC2)=C(O)C1	x	0.2	-4	x	x	x	x	-9	-16	0
CCC(c1nnnn1CCc1ccccc1)N(Cc1ccco1)Cc1cc2cccc(C)c2[nH]c1=O (stereo not drawn)	x	1.3	10	x	x	x	x	9	44	-14
CCC(C(=O)NCc1ccco1)n1nc(C)n2c(cc3occc32)c1=O (stereo not drawn)	-0.1	3.7	0	2	6	3.8	i	-1	4	1
COc1ccc(C2CC(=O)N(C)c3ccccc3S2)cc1OC (stereo not drawn)	2.4	-5.8	-4	-5	-8	-0.6	i	23	3	2
C=CCOc1cccc(C2/C(=C(\O)c3ccc(F)cc3)C(=O)C(=O)N2CCN(C)C)c1 (stereo not drawn)	x	12	1	x	x	x	x	-2	-9	7
Cc1ccc(CNc2ncc(-c3ccc4c(c3)OCO4)n2C)cc1	x	-3.1	-6	x	x	x	x	-16	9	40
O=[N+]([O-])c1ccc(Cn2cc(-c3cccc(C(F)(F)F)c3)nn2)cc1	1.6	1.6	-5	-12	-7	-4.5	i	15	13	-9
COc1ccc(OC)c(NC(=O)[C@@]2(CC(=O)O)CC(/C=C/c3ccccc3)=NO2)c1	2.8	-0.8	-3	3	-5	4.3	i	-2	-8	-16
S=c1[nH]c2ccc(Cc3ccc4[nH]c(=S)[nH]c4c3)cc2[nH]1	-5.1	-6.9	-1	6	6	-9.6	i	5	-9	u
CN(C(=O)COC(=O)Cc1c(F)cccc1Cl)c1c(N)n(Cc2ccccc2)c(=O)[nH]c1=O	0.0	x	1	15	11	-0.8	i	x	x	0
COc1ccc(C)cc1N(CC(=O)N1CCCC1)S(=O)(=O)c1ccccc1	1.1	3.6	-5	5	8	1.9	i	1	0	-2
CN1c2ccccc2C(O)=C(C(=S)Nc2ccc(Cl)cc2)S1(=O)=O	x	5.7	1	x	x	x	x	16	-1	x
CCN(CC)CCN(C(=O)CCS(=O)(=O)c1ccccc1)c1nc2c(C)cc(C)cc2s1	1.9	1.2	2	4	5	-0.6	i	9	53	36
O=C(C1CC1(c1ccccc1)c1ccccc1)N1CCOCC1 (stereo not drawn)	x	-4.8	-6	x	x	x	x	0	-13	-16
CCC(C)(C(=O)NC1CCCCC1)N(Cc1ccco1)C(=O)c1cnccn1 (stereo not drawn)	x	1.5	-6	x	x	x	x	-9	15	-15
CNC(=S)N1CCc2cc(OC)c(OC)cc2C1COc1ccc(OC)cc1 (stereo not drawn)	2.2	1.6	1	-23	22	3.6	i	-1	-11	-15
CCOc1cc(-n2ncc(C#N)c2N)nc(SC)n1	x	0.9	5	x	x	x	x	-5	6	-2
CCCNC(=O)c1ccc(SCC(=O)N(CC)CC)c([N+](=O)[O-])c1	-1.3	2.6	-1	11	11	0.3	i	-2	8	-2
O=C(Oc1ccc[nH]c1=O)c1cc([N+](=O)[O-])cc([N+](=O)[O-])c1	-4.7	3.1	0	1	7	0.3	i	-23	-13	-20
CC1CCCN(S(=O)(=O)c2ccc(NC(=O)CCN3C(=O)c4ccccc4C3=O)cc2)C1 (stereo not drawn)	x	-0.5	-3	x	x	x	x	1	-19	-1
CC(=O)Nc1ccc(S(=O)(=O)NNC(=O)COc2cccc3ccccc23)cc1	x	3.6	-9	x	x	x	x	32	-2	x
CC(=O)NC1=NN(C(C)=O)C(C)(c2cccc([N+](=O)[O-])c2)S1 (stereo not drawn)	-1.5	-1.9	-2	10	11	-1.9	i	-7	-6	-3
CCc1c(C(=O)OC)nnc2cc(C)nn12	x	3.1	-4	x	x	x	x	9	-2	-17
OCCCNC(=S)Nc1ccc(Nc2ccccc2)cc1	9.7	2.5	-1	-3	-2	2.6	i	-15	-5	99*
O=C(NCC1CCCCN1)c1cc(OCC(F)(F)F)ccc1OCC(F)(F)F (stereo not drawn)	-2.4	-3.1	-1	4	0	2.5	i	x	-12	-7
COC(=O)c1ccc(/C=C/C(=O)OCC(=O)c2ccc[nH]2)cc1	-1.5	x	-8	1	8	2.6	i	x	x	-1
O=C1c2ccccc2C(=O)N1CCCC(=O)N1CCCc2ccccc21	x	0.4	0	x	x	x	x	2	-19	-14
COc1cccc(NC(=O)c2nnn(Cc3ccc(Br)cc3F)c2N)c1	-3.0	1.2	2	1	9	-0.2	i	-3	41	-4
CC(C)CNc1oc(-c2ccco2)nc1C#N	x	-4.9	-7	x	x	x	x	25	4	x
CCOC(=O)c1cc(=O)c2ccc(OCc3ccccc3)cc2o1	-2.2	-1.6	-4	5	27	7.5	i	8	0	-14
O=C(NCc1ccc(Cl)cc1)c1cccc(S(=O)(=O)N2CCCC2)c1	-2.5	x	-5	-19*	-8.6*	4.4*	i	x	x	-4
O=C(CCC(=O)c1cccs1)OCC(=O)c1ccc(F)cc1	0.2	x	-2	6	9	3.3	i	x	x	-2
COc1cc(/C=C/C(=O)Nc2nc3ccc(S(=O)(=O)NC(C)C)cc3s2)cc(OC)c1OC	x	-2.8	2	x	x	x	x	3	3	3

Two of the compounds above, with two lines to a compound.
Under each structure: AF4-AF9 inh | RanGTP-Impb inh | Beta apoptosis | Ecoli rRNA inh | Ecoli rRNA inh OD600 | Ecoli rRNA inh RFP | FGF22 binding | Calb FLC | T cruzi inh | ALR inh
- CCc1c(C(=O)OC)nnc2cc(C)nn12
    x | 3.1 | -4 | x | x | x | x | 9 | -2 | -17
- OCCCNC(=S)Nc1ccc(Nc2ccccc2)cc1
    9.7 | 2.5 | -1 | -3 | -2 | 2.6 | i | -15 | -5 | 99*

Next part.
SMILES	AF4-AF9 inh	RanGTP-Impb inh	Beta apoptosis	Ecoli rRNA inh	Ecoli rRNA inh OD600	Ecoli rRNA inh RFP	FGF22 binding	Calb FLC	T cruzi inh	ALR inh
CCCN(CCC)CCNC(=O)c1cc2c(C)nc3ccccc3c2o1	x	0.4	8	x	x	x	x	-2	-17	0
COc1ccccc1C1C(C(C)=O)=C(C)N=c2s/c(=C\c3cc(OC)c(OC)c(OC)c3)c(=O)n21 (stereo not drawn)	x	-2.0	12	x	x	x	x	u	35	0
Cn1c(CSc2nnc(SCc3ccccc3)s2)nc2ccccc21	x	4.7	x	-31	-43	5.1	x	u	27	-9
COc1ccc(-c2nc3ccc(N4CCCC4)cc3c(=O)[nH]2)cc1OC	x	-1.4	-3	x	x	x	x	-7	4	40
Cc1ccc2cn[nH]c2c1[N+](=O)[O-]	-1.7	0.9	1	2	2	-1.0	i	8	7	-5
CCc1noc(C)c1C(=O)Nc1cc(Cl)ccc1N1CCCC1	4.6	0.6	3	-9	-30	-8.7	i	11	-10	99*
COCCNc1nc(-c2ccccc2)nc2c1oc1ccccc12	-1.8	0.5	x	-38	-50	-2.6	i	-6	37	x
O=C(O)C1CC=C(Cl)CC1C(=O)NC1CCCCC1 (stereo not drawn)	x	1.1	1	x	x	x	x	4	-12	-1
CCS(=O)(=O)N1Cc2ccccc2CC1C(=O)N1CCN(c2cccc(C)c2C)CC1 (stereo not drawn)	x	-1.5	-8	x	x	x	x	-9	6	-2
COc1cccc(C(=O)COC(=O)CCC(=O)NC2CCCCC2)c1	-1.7	-2.4	-6	7	1	0.8	i	13	-30	-7
